UUG fidelity: modulators of yeast start codon fidelity, primary screen, whole organism, S. cerevisiae, single point, plate reader | AID 602363, 2012 | hit rate 0.13% among 350,000 | S. cerevisiae UUG-firefly luciferase reporter, luminescence/redox ratio | activity score, % at 18.7 µM;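 active = replicate mean at a twofold rise or more, about +100% in these data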;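 note: firefly luciferase made from a UUG start codon reports start codon fidelity; reporter light over untreated wells divided by growth signal over untreated wells; some hits fall short of that in this replicate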
HIV Env fusion: inhibitors of HIV-1 Env-driven cell-cell fusion, primary screen, HeLa-JRFL effector, CEM21 target cells, luciferase | inhibition, % at 12.3 µM | hit rate 1.1% among 360,000;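 active = mean replicate inhibition score of at least 50 and every replicate individually at or above 50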;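 note: 0% = plate neutral controls and 100% = maraviroc near 300 nM; one replicate is shown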
The depositor's hits bear a star; [ ] = dose if it differs, or a comment. Only part of the results is shown, so the mix of outcomes need not match the whole.

structure	UUG fidelity	HIV Env fusion
COc1ccc(S(=O)(=O)N[C@@H]2CC[C@@H](CC(=O)O)O[C@H]2CO)cc1	-18.9	5.3[16.7 µM]
C[C@@H]1CN([C@@H](C)CO)S(=O)(=O)c2ccc(C#C[C@@H](C)O)cc2O[C@@H]1CN(C)Cc1ccccc1	-2.4	36.3[16.7 µM]
C[C@@H]1CCCCO[C@@H](CN(C)C(=O)c2ccccc2)[C@H](C)CN([C@@H](C)CO)C(=O)c2cc(NC(=O)Nc3ccccc3)ccc2O1	-5.4	-1.8[16.7 µM]
C[C@@H]1CCCCO[C@@H](CN(C)S(C)(=O)=O)[C@H](C)CN([C@H](C)CO)C(=O)c2cc(NC(=O)Nc3ccccc3)ccc2O1	8.5	-14.3[16.7 µM]
C[C@@H]1CN([C@@H](C)CO)C(=O)c2cc(NS(=O)(=O)c3ccc(F)cc3)ccc2O[C@@H](C)CCCCO[C@H]1CN(C)C(=O)CCCN(C)C	20.3	7.7[16.7 µM]
COc1ccc(CN(C)C[C@@H]2Oc3ccc(NC(=O)Cc4cn(C)c5ccccc45)cc3C(=O)N([C@H](C)CO)C[C@H]2C)cc1	-5.6	-7.5[16.7 µM]
C[C@H]1CN([C@@H](C)CO)C(=O)c2cc(NC(=O)NC3CCCCC3)ccc2O[C@@H]1CN(C)C(=O)Nc1ccccc1	15.1	41.0[16.7 µM]
O=C(Nc1ccc(F)cc1)N[C@H]1CC[C@H](CCn2cc(C3(O)CCCC3)nn2)O[C@H]1CO	-8.6	9.9[16.7 µM]
Cc1ccc(S(=O)(=O)N(C)C[C@H]2OCCCC[C@@H](C)Oc3ccc(NS(=O)(=O)c4cn(C)cn4)cc3C(=O)N([C@H](C)CO)C[C@@H]2C)cc1	-7.6	-14.8[16.7 µM]
C[C@H]1CN([C@@H](C)CO)S(=O)(=O)c2ccc(C#Cc3cccnc3)cc2O[C@H]1CN(C)C	-5.8	7.8[16.7 µM]
C[C@H]1CN([C@@H](C)CO)C(=O)c2cc(-c3cccc(F)c3)cnc2O[C@H]1CN(C)Cc1ccncc1	-5.8	9.0[16.7 µM]
C[C@H]1CN([C@@H](C)CO)C(=O)c2cc(-c3ccncc3)cnc2O[C@H]1CN(C)C(=O)c1ccccc1F	-7.6	-99.4[16.7 µM]
COc1ccccc1C(=O)Nc1ccc2c(c1)OC[C@H](C)NC[C@@H](C)[C@@H](OC)CN(C)C2=O	73.9	-7.2[16.7 µM]
O=C(Nc1ccc(Cl)cc1)N[C@H]1CC[C@H](CCNS(=O)(=O)c2ccccc2F)O[C@@H]1CO	17.9	21.7[16.7 µM]
C[C@@H]1CN([C@@H](C)CO)C(=O)Cc2cc(NC(=O)C3CCCCC3)ccc2O[C@H]1CN(C)C(=O)Nc1ccccc1	5.2	-3.9[16.7 µM]
COCC#Cc1ccc2c(c1)O[C@@H](CN(C)C(=O)Nc1ccc(OC)cc1)[C@H](C)CN([C@@H](C)CO)S2(=O)=O	-4.2	-17.5[16.7 µM]
COCCOC(=O)N1C(=O)[C@@]2(c3ccccc31)[C@H](C(=O)N1CCN(c3ncccn3)CC1)[C@H]1C(=O)O[C@H](c3ccccc3)[C@H](c3ccccc3)N1[C@@H]2c1ccc(O)cc1	-6.0	13.7[16.7 µM]
O=C(C[C@H]1CC[C@H](NC(=O)Nc2cccc(F)c2)[C@H](CO)O1)NCC1CCCCC1	9.6	3.9[16.7 µM]
C[C@@H]1CN([C@@H](C)CO)S(=O)(=O)c2ccc(C3=CCCC3)cc2O[C@@H]1CN(C)Cc1ccncc1	0.5	19.0[16.7 µM]
C[C@@H]1CCCCO[C@H](CN(C)C(=O)Nc2cccc3ccccc23)[C@@H](C)CN([C@H](C)CO)C(=O)c2cc(NS(=O)(=O)c3ccc(F)cc3)ccc2O1	-7.3	3.9[16.7 µM]
CCCC#Cc1ccc2c(c1)O[C@H](CN(C)C(=O)c1ccncc1)[C@H](C)CN([C@H](C)CO)S2(=O)=O	9.9	21.7[16.7 µM]
C[C@@H]1CN([C@H](C)CO)C(=O)c2cc(-c3cccc(F)c3)cnc2O[C@H]1CN(C)C(=O)C1CCOCC1	-5.9	-49.5[16.7 µM]
COc1ccc(S(=O)(=O)Nc2ccc3c(c2)C(=O)N([C@H](C)CO)C[C@H](C)[C@H](CN(C)Cc2ccc4c(c2)OCO4)OCCCC[C@@H](C)O3)cc1	16.6	-54.7[16.7 µM]
C[C@@H]1CN([C@@H](C)CO)C(=O)c2cc(NC(=O)Nc3ccc(C(F)(F)F)cc3)ccc2O[C@@H]1CN(C)Cc1ccc2c(c1)OCO2	-2.4	12.6[16.7 µM]
C[C@H]1CN([C@@H](C)CO)C(=O)c2cc(-c3ccncc3)cnc2O[C@H]1CN(C)C(=O)C1CCOCC1	7.5	-9.2[16.7 µM]
C[C@@H]1CN([C@@H](C)CO)C(=O)c2cc(C#CCc3ccccc3)cnc2O[C@H]1CN(C)C(=O)Cc1cccnc1	15.3	0.5[16.7 µM]
C[C@@H]1CCCCO[C@H](CN(C)S(C)(=O)=O)[C@H](C)CN([C@@H](C)CO)C(=O)c2cc(NS(=O)(=O)c3ccc(F)cc3)ccc2O1	-4.0	-8.4[16.7 µM]
C[C@H](CO)N1C[C@H](C)[C@H](CN(C)CC2CCCCC2)OCCCC[C@H](C)Oc2ccc(NC(=O)CCCN(C)C)cc2C1=O	-3.8	1.2[16.7 µM]
C[C@@H]1CN([C@H](C)CO)C(=O)Cc2cc(NC(=O)Nc3ccc(F)cc3)ccc2O[C@@H]1CN(C)CC1CC1	3.5	0.9[16.7 µM]
CC(C)NC(=O)N(C)C[C@@H]1Oc2c(NS(C)(=O)=O)cccc2C(=O)N([C@@H](C)CO)C[C@H]1C	-20.9	-1.8[16.7 µM]

The list goes on; the last 2 above are carried over.
structure	UUG fidelity	HIV Env fusion
C[C@@H]1CN([C@H](C)CO)C(=O)Cc2cc(NC(=O)Nc3ccc(F)cc3)ccc2O[C@@H]1CN(C)CC1CC1	3.5	0.9[16.7 µM]
CC(C)NC(=O)N(C)C[C@@H]1Oc2c(NS(C)(=O)=O)cccc2C(=O)N([C@@H](C)CO)C[C@H]1C	-20.9	-1.8[16.7 µM]
Cc1ccc(S(=O)(=O)N(C)C[C@@H]2Oc3ncc(-c4ccccc4)cc3C(=O)N([C@@H](C)CO)C[C@@H]2C)cc1	-0.7	-5.3[16.7 µM]
COC(=O)C[C@@H]1C[C@H]2c3cc(NC(=O)NC4CCCCC4)ccc3O[C@H]2[C@@H](CO)O1	7.4	3.9[16.7 µM]
C[C@@H]1CN([C@@H](C)CO)C(=O)Cc2cc(NS(=O)(=O)c3cccs3)ccc2O[C@@H]1CN(C)S(=O)(=O)c1ccccc1	-7.8	4.6[16.7 µM]
CNC[C@H]1Oc2cc(C#C[C@H](C)O)ccc2S(=O)(=O)N([C@H](C)CO)C[C@@H]1C	11.6	-3.9[16.7 µM]
C[C@@H]1CN([C@@H](C)CO)C(=O)Cc2cc(NC(=O)C3CCCCC3)ccc2O[C@@H]1CN(C)S(=O)(=O)c1ccc(Cl)cc1	14.2	7.7[16.7 µM]
C[C@H](CO)N1C[C@H](C)[C@H](CN(C)CC2CC2)Oc2ccc(NS(C)(=O)=O)cc2C1=O	-6.3	-13.5[16.7 µM]
C[C@H]1CN([C@@H](C)CO)C(=O)c2cc(NC(=O)Nc3ccc(F)cc3)ccc2O[C@@H]1CN(C)Cc1ccc(-c2ccccc2)cc1	1.4	15.0[16.7 µM]
C[C@@H]1CN([C@@H](C)CO)C(=O)c2cc(-c3ccccc3)cnc2O[C@H]1CN(C)C(=O)Nc1ccccc1	2.4	1.9[16.7 µM]
COCC(=O)N(C)C[C@@H]1Oc2ncc(C3=CCCCC3)cc2C(=O)N([C@H](C)CO)C[C@@H]1C	3.1	-4.4[16.7 µM]
Cc1ccc(S(=O)(=O)Nc2ccc3c(c2)CC(=O)N([C@@H](C)CO)C[C@H](C)[C@H](CN(C)C(=O)Nc2c(C)noc2C)O3)cc1	1.2	7.1[16.7 µM]
C/C=C/c1cnc2c(c1)C(=O)N([C@@H](C)CO)C[C@H](C)[C@@H](CN(C)C(=O)C1CCCCC1)O2	2.7	2.7[16.7 µM]
COc1ccccc1CNC(=O)C[C@H]1C[C@@H]2c3cc(NC(=O)Nc4ccccc4F)ccc3O[C@@H]2[C@@H](CO)O1	3.6	8.7[16.7 µM]
CN(C)C(=O)C[C@H]1C[C@@H]2c3cc(NS(=O)(=O)c4ccc(F)cc4)ccc3O[C@@H]2[C@@H](CO)O1	37.3	90.0*[16.7 µM]
C[C@H]1CCCCO[C@H](CN(C)S(=O)(=O)c2ccccc2)[C@@H](C)CN([C@@H](C)CO)C(=O)c2cc(N(C)C)ccc2O1	7.5	2.0[16.7 µM]
C[C@H](CO)N1C[C@H](C)[C@@H](CN(C)CC2CC2)Oc2cc(C#CC3(O)CCCC3)ccc2S1(=O)=O	15.5	-30.1[16.7 µM]
CC(C)NC(=O)N(C)C[C@@H]1Oc2c(NC(=O)Nc3ccc(C(F)(F)F)cc3)cccc2C(=O)N([C@H](C)CO)C[C@@H]1C	10.2	-4.9[16.7 µM]
CNC[C@H]1Oc2ccc(NC(=O)Cc3cn(C)c4ccccc34)cc2C(=O)N([C@H](C)CO)C[C@@H]1C	-8.2	-20.9[16.7 µM]
C[C@@H]1CN([C@@H](C)CO)C(=O)c2cc(-c3ccccc3)cnc2O[C@H]1CN(C)Cc1ccccc1	-2.6	10.1[16.7 µM]
Cc1noc(C)c1NC(=O)N(C)C[C@H]1Oc2ccc(NC(=O)c3ccncc3)cc2CC(=O)N([C@H](C)CO)C[C@@H]1C	-3.9	-9.4[16.7 µM]
CCC(=O)N(C)C[C@@H]1Oc2ncc(C#C[C@@H](C)O)cc2C(=O)N([C@@H](C)CO)C[C@@H]1C	9.5	-29.1[16.7 µM]
C[C@@H]1CN([C@@H](C)CO)S(=O)(=O)c2ccc(C#CC3CCCC3)cc2O[C@H]1CN(C)S(C)(=O)=O	6.6	6.9[16.7 µM]
COc1ccccc1S(=O)(=O)N[C@@H]1C=C[C@@H](CC(=O)N2CCOCC2)O[C@H]1CO	-13.9	-13.3[16.7 µM]
CNC[C@@H]1Oc2cc(C#CCC3CCCC3)ccc2S(=O)(=O)N([C@@H](C)CO)C[C@@H]1C	1.0	34.2[16.7 µM]
COc1ccc(S(=O)(=O)N(C)C[C@H]2OCCCC[C@H](C)Oc3ccc(NC(=O)NC(C)C)cc3C(=O)N([C@H](C)CO)C[C@H]2C)cc1	6.5	-13.3[16.7 µM]
C[C@H](CO)N1C[C@H](C)[C@@H](CN(C)C(=O)Nc2cccc3ccccc23)OCCCC[C@H](C)Oc2ccc(NS(C)(=O)=O)cc2C1=O	11.5	24.2[16.7 µM]
CO[C@H]1CN(C)C(=O)c2ccc(NS(C)(=O)=O)cc2OC[C@H](C)N(C(=O)C2CCOCC2)C[C@@H]1C	-6.9	15.6[16.7 µM]
C[C@H](CO)N1C[C@H](C)[C@H](CN(C)Cc2cccc(F)c2)Oc2ncc(-c3cccc(F)c3)cc2C1=O	-10.6	7.4[16.7 µM]
C[C@H](CO)N1C[C@H](C)[C@H](CN(C)C(=O)C2CC2)Oc2cc(Br)ccc2S1(=O)=O	10.9	31.0[16.7 µM]
C[C@@H]1CN([C@@H](C)CO)C(=O)c2cc(C3=CCCC3)cnc2O[C@H]1CN(C)Cc1ccc(C(=O)O)cc1	6.6	1.9[16.7 µM]
C[C@H](CO)N1C[C@H](C)[C@@H](CN(C)S(=O)(=O)c2cccs2)Oc2ccc(NC(=O)NC3CCCCC3)cc2CC1=O	16.7	-3.1[16.7 µM]

(next part)
Every second line gives: UUG fidelity | HIV Env fusion
C#Cc1ccc([C@@H]2C=C(C(=O)Nc3ccccc3)O[C@H](OCc3ccc(CO)cc3)C2)cc1
→ -14.3 | -5.1[16.7 µM]
COC(=O)C[C@@H]1C[C@@H]2c3cc(N(C)C)ccc3O[C@@H]2[C@H](CO)O1
→ 23.3 | -26.2[16.7 µM]
C[C@@H]1CCCCO[C@H](CN(C)S(=O)(=O)c2ccccc2)[C@@H](C)CN([C@@H](C)CO)C(=O)c2cc(N(C)C)ccc2O1
→ 6.9 | -40.8[16.7 µM]
C[C@@H]1CCCCO[C@H](CN(C)C(=O)Nc2ccc(C(F)(F)F)cc2)[C@@H](C)CN([C@H](C)CO)C(=O)c2cc(NS(=O)(=O)c3cn(C)cn3)ccc2O1
→ -6.4 | -3.0[16.7 µM]
CC(C)NC(=O)Nc1ccc2c(c1)C(=O)N([C@H](C)CO)C[C@@H](C)[C@H](CN(C)S(=O)(=O)c1ccc(F)cc1)OCCCC[C@H](C)O2
→ 7.4 | -16.4[16.7 µM]
O=C(NCC[C@@H]1CC[C@H](NC(=O)c2cnccn2)[C@H](CO)O1)c1ccc2c(c1)OCO2
→ -1.4 | -10.6[16.7 µM]
COc1cccc(-c2ccc([C@@H]3[C@H](C#N)N(C(=O)Cc4ccccc4)[C@H]3CO)cc2)c1
→ -8.2 | 11.4[16.7 µM]

Complete entries, quoted from the list. Values in the order: UUG fidelity | HIV Env fusion
CN(C)C(=O)C[C@H]1C[C@@H]2c3cc(NS(=O)(=O)c4ccc(F)cc4)ccc3O[C@@H]2[C@@H](CO)O1 across the screens: 37.3 | 90.0*[16.7 µM]
O=C(Nc1ccc(Cl)cc1)N[C@H]1CC[C@H](CCNS(=O)(=O)c2ccccc2F)O[C@@H]1CO across the screens: 17.9 | 21.7[16.7 µM]
COCCOC(=O)N1C(=O)[C@@]2(c3ccccc31)[C@H](C(=O)N1CCN(c3ncccn3)CC1)[C@H]1C(=O)O[C@H](c3ccccc3)[C@H](c3ccccc3)N1[C@@H]2c1ccc(O)cc1 across the screens: -6.0 | 13.7[16.7 µM]
CO[C@H]1CN(C)C(=O)c2ccc(NS(C)(=O)=O)cc2OC[C@H](C)N(C(=O)C2CCOCC2)C[C@@H]1C across the screens: -6.9 | 15.6[16.7 µM]
